From PubChem BioAssay
Sfp PPTase inh: blocks B. subtilis Sfp PPTase activity; Biochemical Sfp PPTase activity, qHTS; Q9F4F7; Potency, µM, without a hit: max response, negative = inhibition, hits mostly inhibitors; 310,000 compounds, 3.5% hits; active = well fitted inhibition curve with a large enough effect; inconclusive = small, poorly fitted or top-dose-only effect, or another doubt; inactive = no such curve, though single readings can be large or run the other way;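 also: the enzyme is Sfp with the accession as filed and its product quenches rhodamine fluorescence; potency is read from the fitted curve at half-maximal effect; 0% = enzyme reaction without inhibitor and -100% = no enzyme wells; top concentration of the series not given in the record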
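Sfp 15 nM + cpd, 15 min RT; start w/ rhodamine-CoA 5 uM, BHQ-2-YbbR 12.5 uM (final); 50 mM Hepes pH 7.6, 10 mM MgCl2, 0.01% NP-40, 0.01% BSA; read 525/598 nm at 0 and 30 min.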
TRPML1 inh: human mucolipin-1 channel inhibition; TRPML1-inducible cells, Ca2+ dye fluorescence, FDSS; active compounds read low; inhibition of EC80 agonist-evoked calcium signal; activity change, negative = inhibition, % (concentration not given with the values); Q9GZU1; 390,000 compounds, 0.02% hits; AID 624415; in the data active means activity change below about -50%; inconclusive means about -30% to -50%; inactive means above about -30%;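 also: stimulus is agonist 54-4 at its EC80 concentration; % is scaled to controls: 0 for no effect and ±100 for the full control effect; the text of the record puts the active cut at -80%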
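TRPML1-DL cells, Tet-induced overnight (~16 h, 37 °C) at 1,500 cells/well, were loaded with Ca8 no-wash dye plus quencher for 45-90 min at room temperature. Compounds were pinned during FDSS kinetic reading; agonist 54-4 at EC80 (4 uM final) then added.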
TRPML1 agonist: activates the human TRPML1 channel. Q9GZU1. TRPML1-expressing cells, Ca2+ dye fluorescence, FDSS; host cell line not named in the record; reference of the full effect not given here. activation, % (test concentration not listed). 410,000 compounds, 0.12% hits. AID 624414; in the data active = activation above about 50%; inconclusive = about 30% to 50%; inactive = below about 30%; also: 0% is about no effect; the text of the record puts the active cut at 80%
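Tetracycline-induced TRPML1-DL cells are seeded and incubated overnight before loading with a no-wash Ca2+ dye and quencher. Agonist activity is taken from the 110 s fluorescence read following compound pin-transfer on an FDSS, before EC80 54-4 challenge.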
PINK1 modulator: PINK1 expression modulation | Potency, µM (series often up to 76.6 µM), inactives show top-dose activation (PINK1 increase), hits mostly activators | PINK1 immunofluorescence, high-content cytometry, 24 h | 410,000 compounds, 0.2% hits; active = well fitted activation curve with a large enough effect; inconclusive = small, poorly fitted or top-dose-only effect; inactive = flat fitted curve, though single readings scatter; cell line not stated here;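 also: potency is read from the fitted curve at half-maximal effect; % of control where 0% means no effect; nearly all actives have a fitted effect of over 65% in size; a mitochondrial uncoupler was the plate control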
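Stable cell line, 250 cells/well, 12 h attachment; compounds pinned at 5 concentrations, 24 h; CCCP control. Fixed with nuclear dye, primary antibodies 12 h at 10 degrees C, secondary plus cell stain; laser-scanning cytometer read.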
Menin MLL FP FL: menin-MLL binding inhibition, fluorescein peptide | Fluorescence polarization, fluorescein-MLL peptide displacement from menin | FP activity change, % at 61.4 µM | 290,000 tested, under 10 active; inconclusive = falling polarisation curve, or a change in total fluorescence; inactive = total fluorescence flat and polarisation flat or rising; no compound was filed as active; the % refers to the polarisation; negative = inhibition;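 also: % of control where 0% means no effect; inhibitors lower the polarisation; unlabelled MLL peptide was the positive control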
ClpP mod: qHTS Assay for Activators of ClpP | ATP-dependent Clp protease proteolytic subunit (Bacillus subtilis (strain 168)), P80244 | purified B. subtilis ClpP, FRET peptide cleavage, 20 min | Potency, µM (top dose mostly 57.5 µM), for the others: top-dose activity change, negative = active | 340,000 compounds, 1.9% hits; active = well fitted falling curve with a large enough effect; inconclusive = small, poorly fitted or top-dose-only effect; inactive = no such curve, though single readings can be large or run the other way; also: potency is read from the fitted curve at half-maximal effect; the source files actives as falling curves though it sought activators and does not explain the sign; nearly all actives have a fitted effect of over 65% in size; many hits overshoot -100%
Target sequence (P80244 whole entry, looked up): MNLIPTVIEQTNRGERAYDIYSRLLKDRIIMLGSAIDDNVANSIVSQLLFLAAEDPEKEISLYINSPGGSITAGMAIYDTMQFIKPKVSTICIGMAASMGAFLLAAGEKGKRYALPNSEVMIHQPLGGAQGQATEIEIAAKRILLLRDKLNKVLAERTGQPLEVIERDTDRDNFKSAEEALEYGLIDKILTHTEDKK
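FRET quenching reversal measured ClpP activation: 10 microg/mL B. subtilis ClpP at pH 8 with the FRET-FV decapeptide, read at 430 nm after 320 nm excitation. The 20-min minus 0-min signal was scaled between DMSO/no-enzyme wells and ADEP (5.8 microM final).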
TRPV1 PAM: potentiators of human vanilloid receptor 1 (TRPV1) | potentiation, % at 8.33 µM | TRPV1-expressing cells, Fluo-8 calcium influx, capsaicin EC20 potentiation; host cell line not named in the record; control for the full effect not named in the record | Q8NER1 | AID 540277 | 320,000 compounds, 0.02% hits; active means potentiation above 80%; inconclusive means 30% to 80%; inactive means below 30%; also: 0% is about no effect
Target sequence (Q8NER1 whole entry, looked up): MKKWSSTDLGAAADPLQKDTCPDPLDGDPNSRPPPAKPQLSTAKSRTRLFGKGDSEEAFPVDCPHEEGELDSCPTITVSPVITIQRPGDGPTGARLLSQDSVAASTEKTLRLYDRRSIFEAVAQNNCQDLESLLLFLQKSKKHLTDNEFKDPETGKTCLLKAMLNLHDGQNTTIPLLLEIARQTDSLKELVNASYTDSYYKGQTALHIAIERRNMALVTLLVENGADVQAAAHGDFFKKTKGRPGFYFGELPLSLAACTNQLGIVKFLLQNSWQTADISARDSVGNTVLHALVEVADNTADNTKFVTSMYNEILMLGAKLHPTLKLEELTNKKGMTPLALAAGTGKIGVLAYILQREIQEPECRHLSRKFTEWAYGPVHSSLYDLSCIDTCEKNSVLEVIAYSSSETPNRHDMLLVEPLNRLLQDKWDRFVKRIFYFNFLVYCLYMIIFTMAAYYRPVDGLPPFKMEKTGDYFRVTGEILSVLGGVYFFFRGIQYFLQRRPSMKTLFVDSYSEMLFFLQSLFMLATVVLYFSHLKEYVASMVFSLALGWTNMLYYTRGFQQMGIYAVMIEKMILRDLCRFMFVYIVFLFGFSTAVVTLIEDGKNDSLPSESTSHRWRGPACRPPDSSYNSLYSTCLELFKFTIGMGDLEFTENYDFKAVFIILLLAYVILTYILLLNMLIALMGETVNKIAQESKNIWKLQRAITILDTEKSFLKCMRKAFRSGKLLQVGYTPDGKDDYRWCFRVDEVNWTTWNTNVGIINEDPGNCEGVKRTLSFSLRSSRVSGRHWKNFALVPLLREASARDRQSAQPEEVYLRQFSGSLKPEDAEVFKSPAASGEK
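Fluo-8 calcium influx in TRPV1-expressing cells, kinetic read (ex 480/em 520 nm). Compound added and read 3 min for agonist activity, followed by capsaicin at EC20 final and 2 min further read for enhancement.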
An asterisk follows results filed as active; ? = inconclusive; nt = not tested or not shown; [ ] = remark or other dose. Hits appear at their usual frequency; about 4.4% have a hit in one of these screens.

SMILES	Sfp PPTase inh	TRPML1 inh	TRPML1 agonist	PINK1 modulator	Menin MLL FP FL	ClpP mod	TRPV1 PAM
CCOC(=O)c1[nH]c2ccc(OC)cc2c1NC(=O)CN1CCN(c2ccccn2)CC1	17%	nt	nt	nt	0.4	nt	-11
Cn1nc([N+](=O)[O-])nc1Oc1ccc(C(C)(C)C)cc1	-3%	4	-0.5	1.9%	0.5	1.4%	-12
CNC(=O)c1c[nH]c2ccc(S(=O)(=O)Nc3cccc(Cl)c3C)cc2c1=O	nt	-13	1.1	0.3%	nt	-20%	2
CC(C)(C)c1ccc(-c2nc(NCc3cccnc3)c3ccccc3n2)cc1	3%	30	1.2	-0.8%	-0.8	-4.7%	-18
OCCC1CN(Cc2ccncc2)CCN1C1CCCC1 (configuration not stated)	17%	4	0.0	-0.6%	?	-1.7%	5
CCCCC(=O)Nc1cc(C)c(NC(=O)c2ccco2)cn1	13%	nt	nt	1.8%	-8.3	1.3%	-6
COc1ccc(/C=C/C(=O)OC2CCCN(C)C2)cc1 (configuration not stated)	-5%	3	0.1	0.4%	-0.8	-4.2%	4
Cc1ccccc1C(=O)c1cccn1CC(=O)O	2%	51	-0.2	0.4%	-1.6	-1.3%	-4
CCc1ccc(CNC(=O)c2ccc(NC(=O)N3CC(C)Sc4ccccc43)cc2)cc1 (configuration not stated)	nt	16	1.9	0.6%	nt	-9.3%	nt
COc1cc(/C=N/N2CCN(c3ccccc3)CC2)cc(OC)c1OC(C)=O	2%	-7	0.0	2.1%	0.6	0.5%	0
O=C(NCc1ccco1)C1(c2ccccc2)CCCC1	3%	45	0.6	nt	1.9	-0.6%	-1
O=C(COc1ccc2ccc(=O)oc2c1)Nc1c(Cl)cccc1C(F)(F)F	13%	0	-0.7	-0.9%	nt	3.4%	-1

Some entries already given, reduced to TRPV1 PAM:
SMILES,TRPV1 PAM
COc1cc(/C=N/N2CCN(c3ccccc3)CC2)cc(OC)c1OC(C)=O,0
O=C(NCc1ccco1)C1(c2ccccc2)CCCC1,-1

(list continues)
SMILES	Sfp PPTase inh	TRPML1 inh	TRPML1 agonist	PINK1 modulator	Menin MLL FP FL	ClpP mod	TRPV1 PAM
CCCn1c(=O)[nH]c(=O)c2c1nc(-c1ccc(OC(F)F)c(OC)c1)n2CCOC	8%	12	-1.5	1.9%	6.5	25µM*	-3
FC(F)(F)c1cnc(COc2cc(Cl)cc(Cl)c2)c(Cl)c1	-3%	-6	1.6	?	-0.5	nt	2
Cc1cccn2c(=O)c(C=NCCO)c(NCc3ccco3)nc12	3%	-7	2.9	-4.3%	0.8	-8.2%	-8
c1cncc(-c2noc(C34CC5CC(CC(C5)C3)C4)n2)c1	-12%	3	-0.7	-0.2%	5.7	-0.5%	-20
S=C(NCc1ccco1)N1CCN(c2ccccn2)CC1	9%	10	0.2	1.1%	-0.5	nt	3
C=CCOc1c(Br)cc(/C=C2\SC(=Nc3ccccc3)NC2=O)cc1OC	28%	nt	nt	?	?	-0.1%	7
COc1ccc(N/C(=C(/C(Cl)=C(Cl)Cl)[N+](=O)[O-])n2nnc3ccccc32)cc1OC	20µM*	nt	nt	nt	?	nt	14
Cc1c(C(=O)N/N=C/c2ccccc2)sc(=S)n1C	8%	0	-0.7	4.9%	0.5	2.0%	4
COc1cnc(SCc2c(Cl)cccc2Cl)nc1Cl	?	26	5.2	?	-5.8	-1.2%	nt
CC(C)(C)OC(=O)N(CCc1ccccc1)Cc1ccc(OCc2cccc(NC(=O)C3CCC3)c2)cc1	nt	1	2.5	-1.0%	nt	-0.4%	nt
Nc1[nH]ncc1-c1ccc(F)cc1	23%	-4	0.5	-0.3%	-5.1	-1.2%	?
COC(=O)c1sc(NC(=O)COc2c(C)cccc2C)nc1C	12%	4	4.1	-0.3%	2.4	nt	0
CC(=O)c1cnc2cc(-c3cccc(Br)c3)nn2c1C	22%	10	-0.1	2.1%	1.9	nt	-3
CCc1ccc(NC(=O)CCc2nnc3ccc(N4CCC5(CC4)OCCO5)nn23)cc1	8%	14	-0.6	-0.9%	0.1	-3.7%	2
Cc1cc(Cl)ccc1N(CC(=O)NCc1ccc2c(c1)OCO2)S(C)(=O)=O	25%	-9	0.4	0.1%	-0.9	nt	3
CSC(=NCc1ccco1)NC#N	-27%	30	-0.8	4.1%	3.2	0.7%	3
CCOc1cc(-c2nc(C)c(C(C)=O)n2O)ccc1OCC(=O)Nc1cccc(C)c1	?	-4	0.2	-0.4%	-1.2	0.2%	0
CC1(C(=O)NS(=O)(=O)c2ccc(Cl)cc2)CCN1C(=O)c1ccco1 (configuration not stated)	nt	nt	-0.6	2.6%	nt	0.5%	nt
Cc1noc(C)c1C(=O)N1CCC2(CCN(C(=O)Nc3ccccc3)CC2)CC1	4%	nt	nt	-0.1%	2.5	nt	nt
Brc1ccc(-c2csc(NC3=NCCCCC3)n2)cc1	1%	17	0.1	2.2%	-1.8	nt	-8
COc1ccc2c(c1)CN(C)S(=O)(=O)c1ccccc1-2	nt	-3	-1.0	-0.4%	nt	4.4%	nt
CCCCC(=O)Nc1ccc(NC(=O)c2cccs2)cn1	nt	9	0.5	1.6%	nt	-0.9%	nt
COC(=O)c1c(NC(=O)c2ccc(S(=O)(=O)N3CCOCC3)cc2)sc2c1CCN(C(C)C)C2	6%	-17	0.7	-1.0%	nt	-0.8%	-2
Cc1ccc(C(=O)C(C)N(C(=O)c2ccc(Cl)cc2Cl)N2C(=O)CCCC2=O)cc1 (configuration not stated)	5%	17	-0.7	2.1%	-10	1.6%	-4
CCC(C)Cn1cnc2c(SCc3ccccn3)nc(N)nc21 (configuration not stated)	nt	6	-0.4	4.6%	nt	nt	nt
Cc1ccccc1NS(=O)(=O)c1cc(C(=O)NCCC2=CCCCC2)ccc1C	9%	0	1.3	-0.9%[38.3 µM]	5.3	0.0%	9
CC(=O)C1=C(c2ccccc2)NC(=O)NC1c1ccc(O)c(Cl)c1 (configuration not stated)	3%	-3	0.1	1.9%	-2.0	nt	-10
O=C1CSC(=S)N1N=Cc1c(O)ccc2ccccc12	nt	-7	2.5	-3.7%	nt	-28%	nt
CN(CCOc1ccccc1)CC(O)COc1ccccc1 (configuration not stated)	6%	4	-0.8	0.2%	-5.2	nt	14
Cc1cccc(NC(=O)CN2CCCN(S(=O)(=O)c3ccc(Br)s3)CC2)c1	-21%	47	1.8	-1.2%	1.4	-1.8%	-7
N=c1c(C(=O)NCCN2CCOCC2)cc2c(=O)n3ccccc3nc2n1CCCN1CCOCC1	-6%	-14	0.8	-0.8%	-7.0	3.7%	3
COc1cccc(NC(=O)COc2ccc(N3CC(C(=O)NCC(C)C)CC3=O)cc2)c1 (configuration not stated)	-4%	-13	0.1	-4.4%	4.6	2.4%	-6
CCN(CC)CCCN=C1N[C@@H](c2cccc(C(F)(F)F)c2)C(C(=O)OC)=C(C)N1CC	nt	-4	0.7	-0.7%	nt	-1.2%	nt
CCC1(CC)C(=O)N(C)C(=O)NC1=NCc1ccccc1	20%	-5	-0.9	-0.5%	0.8	-0.7%	24
CCOC(=O)C(C(=O)Nc1ccc(C)cc1)C1CCCCC1 (configuration not stated)	3%	-1	0.7	15%	-1.8	?	-2
Cc1ccc(C(=O)Nc2ccccc2C(=O)N2CC3(C)CC2CC(C)(C)C3)cc1 (configuration not stated)	-10%	20	5.7	-1.0%	-3.4	-5.6%	-15
CCc1nnc(NC2=NCCC2)s1	56µM*	1	0.2	-0.7%	3.3	0.8%	-8
Cc1cc(N)n2ncc(-c3ccc(F)cc3)c2n1	10%	-1	-0.3	-1.1%	-1.0	-15%	-6
CCOc1ccc2nc(SCC(=O)c3ccc(C)s3)sc2c1	18µM*	-15	3.6	-2.1%	14	-0.3%	15
CCOc1ccc(/C=N/NC(=O)c2ccc(Cn3cc(Br)cn3)o2)cc1	-1%	-9	-0.9	1.2%	1.7	-1.7%	-4
COc1ccc(-c2cc(C(=O)N3CCN(c4ccccn4)CC3)c3ccccc3n2)cc1	-3%	2	1.3	7.7%[38.3 µM]	3.4	?	0
COc1ccc(CN2CCN(C(=O)c3ccc4nc(N5CCOCC5)sc4c3)CC2)c(OC)c1OC	24%	14	-0.4	-0.1%	-5.9	nt	-5
O=C1C=CC(=O)N1Cc1ccccn1	nt	?	-0.2	-1.3%	nt	nt	nt
O=C1NN(c2ccccc2)C(=O)/C1=C/c1coc2ccccc2c1=O	-6%	23	1.1	17%	?	42%	0
O=C1CCCCCN1C(=O)c1ccccc1	nt	21	0.6	2.9%	nt	nt	nt
COc1cccc2c1cc1c(=O)n(CC(=O)NCCCc3ccccc3)nc(C)n12	11%	18	0.2	1.6%	nt	?	0
CCC(C)(C)C1CCC2(CC1)NC(=O)N(CC(=O)N(C)CCOc1ccc(Cl)cc1)C2=O (configuration not stated)	nt	13	-0.4	?	nt	2.9%	17
Cc1csc2nc(SCC(=O)Nc3ccccc3F)[nH]c(=O)c12	-3%	?	0.9	5.8%	nt	1.2%	-4
O=C(c1ccc(Cl)c(S(=O)(=O)N2CCCCCC2)c1)N1CCN(CCO)CC1	9%	18	0.0	1.3%	0.5	0.3%	-25
O=c1[nH]c2ccccc2nc1Cc1ccc(Cl)cc1	-6%	7	1.7	5.4%	1.5	nt	-14
N#Cc1c(NCCO)ccc([N+](=O)[O-])c1NCCO	24%	14	-0.1	1.0%	4.5	nt	-2
COc1ccc(C(=O)CSc2ccc(-c3ccco3)nn2)cc1	16µM*	-2	0.8	1.3%	0.4	-7.7%	-22
CCCc1c(O)nc(SCC(=O)N2CCCCC2)[nH]c1=O	5%	-15	-0.9	1.0%	2.1	-0.4%	?
Cc1ccc(C)c(S(=O)(=O)N2CCN(C(=O)c3n[nH]c(=O)c4ccccc34)CC2)c1	nt	8	-0.9	0.7%	nt	0.3%	22
COc1ccccc1C(C)NCC(=O)NCc1ccc(C)cc1 (configuration not stated)	11%	-13	-1.4	-0.7%	-3.5	-1.2%	-10
O=C(OCc1nc(-c2ccccc2)oc1COC(=O)c1ccco1)c1ccco1	-3%	12	2.5	-3.2%[38.3 µM]	-0.2	-0.5%	7
CCOc1ccc(CCNC(=O)CCSCc2cccc(Cl)c2)cc1OCC	nt	-12	2.5	0.0%	nt	0.5%	nt
